ClpP mod: qHTS Assay for Activators of ClpP; ATP-dependent Clp protease proteolytic subunit (Bacillus subtilis (strain 168)), P80244; purified B. subtilis ClpP, FRET peptide cleavage, 20 min; Potency, µM (highest dose often 57.5 µM), for the others: at the highest dose activity change, negative = active; hit rate 1.9% among 340,000; AID 651965, 2013; active = well fitted falling curve with a large enough effect; inconclusive = small, poorly fitted or top-dose-only effect; inactive = no such curve, though single readings can be large or run the other way; note: potency is the fitted concentration of half-maximal effect; the source files actives as falling curves though it sought activators and does not explain the sign; nearly all actives have a fitted effect of over 65% in size; many hits overshoot -100%
Target sequence (P80244 whole entry, looked up): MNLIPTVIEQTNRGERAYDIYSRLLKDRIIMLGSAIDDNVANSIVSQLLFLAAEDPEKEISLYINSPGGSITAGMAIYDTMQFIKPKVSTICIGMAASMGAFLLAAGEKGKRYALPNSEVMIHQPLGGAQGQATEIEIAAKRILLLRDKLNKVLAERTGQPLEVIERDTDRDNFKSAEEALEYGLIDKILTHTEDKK
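Buffer: 100 mM Tris/HCl pH8, 100 mM KCl, 0.05% low protease BSA, 2.5% glycerol, 0.01% Tween-20. ClpP 10 microg/mL final; 20 min RT; delta FRET normalized to ADEP and DMSO controls.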
TRPML1 blocker: qHTS for Inhibitors of the Human Mucolipin Transient Receptor Potential 1 (TRPML1); activity change, negative = inhibition, % (test concentration not listed); Mucolipin-1 (Homo sapiens), Q9GZU1; hit rate 0.02% among 390,000; TRPML1-inducible cells, Ca2+ dye fluorescence, FDSS; active compounds read low; inhibition of EC80 agonist-evoked calcium signal; in the data active means activity change below about -50%; inconclusive means about -30% to -50%; inactive means above about -30%;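 note: stimulus is agonist 54-4 at its EC80 concentration; % is set by controls: 0 for no effect and ±100 for the full control effect; compound concentration not given in the record; the text of the record puts the active cut at -80%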
Target sequence (Q9GZU1 whole entry, looked up): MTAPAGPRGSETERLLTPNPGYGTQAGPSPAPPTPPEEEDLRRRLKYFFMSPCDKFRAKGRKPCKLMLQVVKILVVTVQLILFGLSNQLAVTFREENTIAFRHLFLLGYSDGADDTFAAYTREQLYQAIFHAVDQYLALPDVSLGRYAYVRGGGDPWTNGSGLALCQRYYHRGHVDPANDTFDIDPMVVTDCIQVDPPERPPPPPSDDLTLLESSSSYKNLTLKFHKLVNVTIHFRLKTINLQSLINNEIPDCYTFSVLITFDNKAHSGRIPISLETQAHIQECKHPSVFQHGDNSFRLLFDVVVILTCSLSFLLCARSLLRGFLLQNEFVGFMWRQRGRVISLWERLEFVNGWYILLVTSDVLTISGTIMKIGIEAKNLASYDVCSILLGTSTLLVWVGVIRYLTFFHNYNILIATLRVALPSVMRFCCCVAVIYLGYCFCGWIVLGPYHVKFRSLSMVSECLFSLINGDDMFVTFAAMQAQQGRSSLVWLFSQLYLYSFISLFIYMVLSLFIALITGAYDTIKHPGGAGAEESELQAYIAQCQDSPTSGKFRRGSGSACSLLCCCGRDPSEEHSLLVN
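Tet-induced TRPML1-DL cells loaded with Ca8 no-wash calcium dye were read kinetically on FDSS. Compound addition was followed by EC80 agonist 54-4 (4 uM final); inhibition was read over 110 s.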
gsp ag: qHTS for Agonist of gsp, the Etiologic Mutation Responsible for Fibrous Dysplasia/McCune-Albright Syndrome: qHTS; gsp mutant cells, cAMP HTRF, 30 min; control for the full effect not named in the record; Potency, µM (highest dose often 76.9 µM), for the others: at the top dose activation (cAMP increase), most hits filed as activators; hit rate 0.13% among 340,000; active = well fitted activation curve with a large enough effect; inconclusive = small, poorly fitted or top-dose-only effect, or another doubt; inactive = no such curve, though single readings can be large or run the other way; cell line not stated here;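 note: phosphodiesterase inhibitor Ro 20-1724 added with compounds to block cAMP breakdown; potency is the fitted concentration of half-maximal effect; nearly all actives have a fitted effect of over 60% in size; about a fifth of the inactives were tested at one dose only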
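Cells in DMEM/10% FBS with G418 were pretreated with compounds in DMSO plus […] (300 uM stock) for 30 min at 37C. cAMP was measured by HTRF (cAMP-d2 plus anti-cAMP antibody-K) after 30 min at room temperature.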
TRPML1 agonist: qHTS for Agonists of the Human Mucolipin Transient Receptor Potential 1 (TRPML1). TRPML1-expressing cells, Ca2+ dye fluorescence, FDSS; host cell line not named in the record; reference of the full effect not given here. activation, % (test concentration not listed). hit rate 0.12% among 410,000; in the data active = activation above about 50%; inconclusive = about 30% to 50%; inactive = below about 30%; note: 0% is about no effect; the text of the record puts the active cut at 80%
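In this qHTS format, compounds were pin-transferred onto Ca8-dye-loaded TRPML1-DL cells induced with Tet overnight, and intracellular Ca2+ fluorescence was recorded kinetically for 110 s after a 10 s baseline. A subsequent 4uM final 54-4 (EC80) addition followed by a second 110 s read served as the antagonist phase.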
Menin-MLL FL inh: qHTS Assay for Inhibitors Targeting the Menin-MLL Interaction in MLL Related Leukemias: Competition With Fluorescein Labeled MLL-derived Peptide; Fluorescence polarization, fluorescein-MLL peptide displacement from menin; FP activity change, % at 61.4 µM; 290,000 tested, under 10 active; AID 1766, 2009; inconclusive = falling polarisation curve, or a change in total fluorescence; inactive = total fluorescence flat and polarisation flat or rising; no compound was filed as active; the % refers to the polarisation; negative = inhibition;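 note: % of control where 0% means no effect; inhibitors lower the polarisation; unlabelled MLL peptide was the positive control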
gsp antagonist: qHTS for Antagonists of gsp, the Etiologic Mutation Responsible for Fibrous Dysplasia/McCune-Albright Syndrome: qHTS; gsp-mutant cells, cAMP HTRF, 30 min; control for the full effect not named in the record; Potency, µM (highest dose often 76.9 µM), for inactives: at the top dose activity change, negative = inhibition, actives largely listed as inhibitors; hit rate 0.4% among 340,000; active = falling curve of any shape with a large fitted effect; inconclusive = falling curve, mostly with a smaller effect; inactive = flat or rising curve; cell line not stated here;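 note: intracellular cAMP measured with PDE inhibitor Ro 20-1724 present during compound exposure; potency is the fitted concentration of half-maximal effect; % is set by controls: 0 for no effect and ±100 for the full control effect; nearly all actives have a fitted effect of over 65% in size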
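HTRF cAMP read-out (cAMP-d2 plus anti-cAMP antibody-K in lysis buffer, 30 min RT). Before lysis, cells are exposed to compounds with […] for 30 min at 37C in DPBS containing Ca/Mg, BSA and Tween 20.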
Numbers without * were called inactive; ? = inconclusive; . = no result given; & = joins results of further samples; [ ] = another dose, or the depositor's remark.

compound	ClpP mod	TRPML1 blocker	gsp ag	TRPML1 agonist	Menin-MLL FL inh	gsp antagonist
CC1CC(C)CN(S(=O)(=O)c2ccc(NC(=O)CN3C(=O)NC(C)(c4ccccc4)C3=O)cc2)C1 (stereo not drawn)	-1.6%	18	27%	1.9	0.7	-11%
CCCCCCSc1ccc([C@H]2N[C@@](C)(C(=O)OC)[C@H]3C(=O)N(CC)C(=O)[C@@H]23)cc1	-11%	33	-18%	1.3	.	-18%
O=C(CN1CCc2ccccc21)NN1CC(=O)N(c2ccc(Cl)cc2)CC1=O	.	0	6%	-0.8	2.2	8%
CCOC(=O)C1=C(C)Nc2ccccc2N=C1NC(=O)/C=C/c1ccc(OC)cc1OC	-18%	7	-4%[15.4 µM]	-0.5	?	6%
O=C1c2cc([N+](=O)[O-])cc3cc([N+](=O)[O-])cc(c23)C(=O)N1c1ccccn1	-4.8%	-1	13%[15.4 µM]	0.9	11	-19%
CCOC(=O)C1(Cc2cccc(OC)c2)CCCN(C(=O)CCSC)C1 (stereo not drawn)	.	30	-11%	-0.7	-1.7	4%
CCC1CCCCN1C(=S)NC(=O)c1cc(Br)ccc1Cl (stereo not drawn)	0.7%	-4	-118%[inhibitor]	1.2	.	3%
Cc1ccc(NC(=O)Cn2c(CCC(=O)O)ccc2-c2cccs2)cc1	-5.8%&-11%	7&14	-32%[inhibitor]	1.7&-0.5	3.1	-12%
CC(C)(C)OC(=O)NNC(=O)c1cccs1	.	10	-9%	-0.1	-2.2	11%
COc1ccc(/C=C/C(=O)NC(=S)Nc2ccc(S(=O)(=O)Nc3cc(OC)ncn3)cc2)cc1	.	22	?	0.5	5.0	-25%
Cc1ccc(CN2C(=O)N/C(=C/c3cc(C)n(-c4ccccn4)c3C)C2=O)cc1	-13%	-12	-4%	-1.5	5.6	3%
C/C(=N\Nc1ncc(Cl)cc1Cl)c1ccc(C#N)cc1	47%	15	-5%[15.4 µM]	1.4	-1.1	4%
COc1ccc(NC(=O)C(=O)c2cn(CC(=O)N3CCCC3)c3ccccc23)cc1	-1.1%	23	24%	-0.6	.	29%
CCOc1ccc(NC(=O)C2C3C=CC4(CN(C(C(=O)OC)C(C)C)C(=O)C24)O3)cc1 (stereo not drawn)	-1.8%	-16	-18%	0.2	5.6	6%
CC(C)C[C@@H](NC(=O)C1CCC(CNC(=O)[C@H](Cc2ccccc2)NC(=O)OC(C)(C)C)CC1)C(=O)O (stereo partly drawn)	.	15	-18%	1.5	1.3	3%
CCOC(=O)CN(Cc1sccc1C)C(=O)Nc1cccc(OC)c1	-1.0%	-5	-11%	0.1	8.0	8%
CS(=O)(=O)N(CC(=O)N1CCCC1)c1ccc2c(c1)OCCO2	-1.1%	25	-29%	2.7	1.7	-1%
CN(C)S(=O)(=O)N(CCN1CCOCC1)Cc1ccccc1F	-2.2%	0	11%	-0.4	2.7	2%
COCCn1nnnc1C(c1cc2cc(OC)ccc2[nH]c1=O)N1CCC(Cc2ccccc2)CC1 (stereo not drawn)	3.7%	8	-32%[inhibitor]	2.4	?	?
O=C(Cc1cccc(C(F)(F)F)c1)NCc1ccc(Cl)cc1	0.6%	14	23%[15.4 µM]	0.0	5.0	-17%

Just gsp ag, for some of the entries so far:
| mol | gsp ag |
| --- | --- |
| O=C1c2cc([N+](=O)[O-])cc3cc([N+](=O)[O-])cc(c23)C(=O)N1c1ccccn1 | 13%[15.4 µM] |
| CCOC(=O)C1(Cc2cccc(OC)c2)CCCN(C(=O)CCSC)C1 (stereo not drawn) | -11% |
| CCC1CCCCN1C(=S)NC(=O)c1cc(Br)ccc1Cl (stereo not drawn) | -118%[inhibitor] |
| Cc1ccc(NC(=O)Cn2c(CCC(=O)O)ccc2-c2cccs2)cc1 | -32%[inhibitor] |

The listing continues.
compound	ClpP mod	TRPML1 blocker	gsp ag	TRPML1 agonist	Menin-MLL FL inh	gsp antagonist
O=C(CCN1Cc2ccccc2C1)c1ccc2c(c1)OCCO2	-2.6%	1	?	0.4	4.3	9%
COc1ccc(/C=C/C(=O)C2(O)CCCCC2)cc1OC	-3.7%	6	-16%	-0.3	0.1	-14%
N#Cc1ccc(S(=O)(=O)N2CCN(c3ncccn3)CC2)cc1	-6.2%	6	-18%	-0.6	3.5	6%
CCC1Oc2ccccc2N(CC(=O)NCc2cc(OC)ccc2OC)C1=O (stereo not drawn)	-0.9%	-4	.	0.9	.	.
COc1ccc(NC(C#N)c2ccc(OC)cc2)cc1 (stereo not drawn)	-2.3%	-17	3%	-0.9	2.2	-10%
COc1ccc(C=NCCCN2CCOCC2)cc1	-1.1%	-3	1%	-1.1	1.6	0%
CCn1ncc(Cl)c1C(=O)Nc1cc(Cl)ccc1Cl	-2.9%	4	3%	2.2	-3.9	3%
COc1ccc(CCN2CC(C(=O)N(C)Cc3c(C)n[nH]c3C)CCC2=O)cc1 (stereo not drawn)	0.7%	20	-7%	-0.3	-9.4	18%
O=S(=O)(c1ccc(N2CCN(CCO)CC2)nc1)N1CCOCC1	-8.3%	-14	-11%	0.1	.	11%
O=C(/C=C/c1ccccc1)NC(=S)NNS(=O)(=O)c1ccccc1	.	-3	-34%[inhibitor]	-0.7	-6.0	-10%
CCOC(=O)C1CCN(c2nc(C)cc(C)c2C#N)CC1	.	-5	1%	0.6	2.9	-5%
Cc1cccc(NC(=O)CNC(=O)c2ccc(S(=O)(=O)NCc3ccco3)cc2)c1C	-0.5%	-1	?	0.0	.	.
COCCCNC(=O)Cn1cnc2sc(C)c(S(=O)(=O)N3CC(C)CC(C)C3)c2c1=O (stereo not drawn)	0.4%	-20	-1%[15.4 µM]	-1.2	8.8	11%
Cc1onc(-c2ccc3c(c2)OCO3)c1-c1ccc2[nH]ccc2c1	1.9%&2.2%	23	?	0.2&-1.3	2.5	3%
Cc1noc(C)c1S(=O)(=O)N1CCCN(C(=O)/C=C/c2ccccc2F)CC1	0.6%	-2	-2%	-0.9	.	-9%
CCCCC(=O)Oc1ccccc1C1SCc2cc(C)c(C)cc2CS1	-3.5%	-6	0%	0.1	-3.5	-2%
CCOc1ccc(C(=O)NCC(=O)OCc2c(C)noc2C)cc1OCC	.	5	-12%[15.4 µM]	0.0	0.8	-15%
CCOC(=O)Cn1nnc(-c2ccc(OCC(C)C)cc2)n1	-4.6%	4	7%	0.6	1.9	-3%
COc1ccc(N2CCN(S(=O)(=O)c3ccc(Cl)s3)CC2)cc1	.	13	15%[15.4 µM]	0.0	-5.0	-23%
O=C(OCC(=O)c1ccc(Br)s1)c1ccc(O)cc1	-3.2%	9	21%	1.4	.	2%
CC(=O)Nc1ccc(NC(=O)COC(=O)c2ccc(Cl)nc2)cc1	.	9	28%[15.4 µM]	1.9	.	7%
C=CCNC(=O)/C(=C/c1cccc([N+](=O)[O-])c1)NC(=O)c1ccco1	.	-9	-9%[15.4 µM]	0.8	5.2	12%
Cc1ccc(S(=O)(=O)CC(=O)Nc2nc(-c3ccccc3)cs2)cc1	-2.3%	11	-10%	1.3	2.6	-9%
Cc1noc2ncnc(N3CCCC(C(=O)Nc4cccc(C(F)(F)F)c4)C3)c12 (stereo not drawn)	-2.6%	11	.	2.1	.	.
CC(=O)Nc1ccc(NC(=O)c2ccc3c(c2)N(Cc2cccc(Cl)c2)C(=O)c2ccccc2S3=O)cc1 (stereo not drawn)	0.0%	-4	.	-0.7	.	.
COc1ccc(NC(=O)CSc2nnc(-c3cccs3)o2)cc1	0.5%	-12	.	-0.6	.	.
COc1cccc(CN2CCNC(=O)C2CC(=O)NCCN2CCOCC2)c1OC (stereo not drawn)	-1.8%	10	-43%[inhibitor]	-0.3	.	18%
O=C1/C(=C/c2ccncc2)CCc2ccccc21	-0.7%	-2	-43%[inhibitor]	-0.4	1.2	-1%
Cn1c(Cc2ccccc2)nnc1SCC(=O)Nc1ccc2c(c1)OCCO2	-1.3%	-12	-32%	1.4	0.5	2%
CC(=O)c1cc(C#N)c(N2CCN(c3ccccc3)CC2)nc1C	-1.1%	15	43%	0.9	-8.6	22%
COc1cc(/C=C/C(=O)O)cc(S(=O)(=O)Nc2ccc3nc(SC)sc3c2)c1OC	-0.6%	29	14%[15.4 µM]	0.3	0.9	-9%
COc1ccc(OC)c(CCNC(=O)C(C)n2nc(C)c3c(C)n(-c4ccccc4)nc3c2=O)c1 (stereo not drawn)	-7.2%	-7	2%	-1.5	.	7%
CCN(CC)S(=O)(=O)c1cc(C(=O)OCC(=O)c2ccc3c(c2)NC(=O)CO3)ccc1Cl	-1.9%	-30	-27%	0.2	6.0	5%
CCOc1ccccc1N(CC(=O)NC1CCCCC1)C(=O)CCCC(=O)Nc1ccccn1	-1.4%	-2	-30%	-0.6	0.3	1%
CCOC(=O)Nc1cccc2ccccc12	-21%	-1	-43%[inhibitor]	0.3	0.9	13%
O=C(NCCN1CCOCC1)C(=O)NCC1OCCN1S(=O)(=O)c1ccc(Cl)cc1 (stereo not drawn)	0.0%	-7	0%	-0.4	.	.

A different layout for part of the listing above:
SMILES: CCOc1ccccc1N(CC(=O)NC1CCCCC1)C(=O)CCCC(=O)Nc1ccccn1
  ClpP mod = -1.4% | TRPML1 blocker = -2 | gsp ag = -30% | TRPML1 agonist = -0.6 | Menin-MLL FL inh = 0.3 | gsp antagonist = 1%

SMILES: CCOC(=O)Nc1cccc2ccccc12
  ClpP mod = -21% | TRPML1 blocker = -1 | gsp ag = -43%[inhibitor] | TRPML1 agonist = 0.3 | Menin-MLL FL inh = 0.9 | gsp antagonist = 13%

Outcome played no part in choosing rows (roughly 2.1% active in at least one column).
